# TAR Tat displ: TAR RNA-Tat peptide displacers, HIV-1, primary screen, biochemical, FRET, FAM/TAMRA-labeled Tat. HIV-1 TAR RNA, Tat peptide displacement FRET; hits give high values. z-score (no concentration beside the values). hit rate 0.6% among 100,000. AID 1259389, 2018;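 further: score is relative to mean and SD of negative controls; some compounds called inactive have numbers as strong as hits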
# CDC25B-CDK2 inh: primary biochemical HTRF screen for blockers of M-phase inducer phosphatase 2 binding to CDK2/cyclin A; hit rate 0.72% among 94,000; P30305+P24941; z-score (test concentration not listed); HTRF CDC25B-CDK2/CyclinA binding, anti-His/anti-Flag; hits give high values;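 further: score is relative to mean and SD of negative controls; strong numbers were not always called active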
# The depositor's hits bear a star; / = not tested or not shown.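 How the source made its calls: active means z-score from 3 up in half or more of its runs; inactive means the rest.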
mol | TAR Tat displ | CDC25B-CDK2 inh
CSc1ccc(C2CC(=O)Oc3c2c(=O)n(C)c2ccccc32)cc1 (stereo not drawn) | 2.97 | -1.79
CCN(CC)CCCNS(=O)(=O)c1cc(Br)cc2c1N(C(=O)C1CC1)CC2 | / | -0.42
CCOc1cc(-c2nnc3[nH]c(=O)n(C)c(=O)c3n2)ccc1OC(C)C | 2.69 | -1.15
CN1CCN(c2ccc3nnc(CCC(=O)Nc4ccc(F)cc4F)n3n2)CC1 | 0.77 | /
Cn1ncc2c(N3CCOCC3)nc(N3CCCCC3)nc21 | 1.68 | /
Clc1ccc(NCc2cccnc2)c(Cl)c1 | / | -1.65
CCCc1cnc(N2CCN(C(=O)c3cc(C)on3)CC2)nc1 | / | -0.47
CCC1Sc2ccc(S(=O)(=O)CCC(=O)NCc3ccc(C)o3)cc2NC1=O (stereo not drawn) | 0.48 | /
Cc1ccc(-c2onc(C)c2C)cc1S(=O)(=O)N1CCOc2ccc(Cl)cc21 | 0.64 | /
Cc1ccc(C(C)C)c(OC(C)C(=O)N(Cc2ccc(C)o2)C2CCS(=O)(=O)C2)c1 (stereo not drawn) | 0.93 | 0.79

mol | TAR Tat displ | CDC25B-CDK2 inh
CCC1(CC)Cc2ccccc2C(NC(=O)N(C)C)=C1C#N | 1.4 | -0.74
O=S(=O)(NCc1ccccn1)c1ccc2c(c1)OCCO2 | 0.39 | -0.1
CCOC(=O)CSc1nc2c(sc(=S)n2CCc2ccccc2)c(=O)n1Cc1ccco1 | 2.29 | /
CC(C)C(=O)N1CC(C)(C)c2cc(S(=O)(=O)N3CCc4ccccc4C3)ccc21 | 0.83 | /
Cc1oc2ncnc(N3CCOCC3)c2c1C(=O)N1CCN(c2ccc(Cl)cc2)CC1 | 1.29 | /
CCOC(=O)c1ccc2nc(C(F)(F)F)nc(N3CC(C)OC(C)C3)c2c1 (stereo not drawn) | -0.05 | -0.76
COc1ccc(Cc2nc3c4cnn(-c5ccc(C)c(C)c5)c4ncn3n2)cc1 | 2.02 | 0.23
CCCn1c(N2CCOCC2)nc2c1c(=O)[nH]c(=O)n2C | / | -2.02
COc1cccc(C2Nc3nonc3NC3=C2C(=O)CC(C)(C)C3)c1 (stereo not drawn) | 1.76 | -0.8
COc1ccc(OC)c(CNS(=O)(=O)c2c(C)nc3scc(C)n3c2=O)c1 | 2.27 | -2.48

mol | TAR Tat displ | CDC25B-CDK2 inh
CCn1c(=O)c(=O)n(CC)c2cc(S(=O)(=O)N3CCc4ccccc43)ccc21 | 0.91 | /
CC(C)c1nn2c(=O)cc(COC(=O)C(C)(C)C)nc2s1 | -0.18 | /
COc1ccc(OC)c(C2N(c3ccccn3)C(=O)C3CCCN32)c1 (stereo not drawn) | / | -1.23
CCC(CC)C(=O)Nc1nc2c(s1)C(=O)CC(C)(C)C2 | -0.56 | 0.14
O=C(CSc1nnc(-c2cccnc2)o1)NCc1ccc2c(c1)OCO2 | 3.09 | -0.74
CCC(=O)N1c2ccc(S(=O)(=O)CCC(=O)N3CCN(c4cc(C)ccc4C)CC3)cc2CC1C (stereo not drawn) | / | -1.48
Cc1cc2c(s1)CCc1cc(C(=O)N3CCC(N4CCCCC4)CC3)sc1-2 | 2.76 | /
O=C(NC1CCCCC1)c1cnn2c1NC(c1ccc(Br)cc1)CC2C(F)(F)F (stereo not drawn) | 0.6 | -0.63
CCCc1nc2c3ccccc3nc(NCCCN3CCN(c4ccccc4F)CC3)n2n1 | -0.62 | -0.35
O=C(CSc1oc(-c2ccc(F)cc2)nc1S(=O)(=O)c1ccc(F)cc1)NCC1CCCO1 (stereo not drawn) | 0.85 | 0.9

mol | TAR Tat displ | CDC25B-CDK2 inh
N=C(N)SC1CS(=O)(=O)CC1O (stereo not drawn) | / | -2.08
CCn1cc2nc(SC)n(Cc3ccc(C)cc3)c(=O)c2n1 | 0.33 | /
Cc1ccc(-c2nc3nc(C)cc(NCc4cccnc4)n3n2)cc1 | -5.38 | /
Cc1cc(Cl)ccc1NC(c1ccccn1)c1ccc2cccnc2c1O (stereo not drawn) | 0.88 | 3.82
COc1ccc(C)cc1S(=O)(=O)N1CCN(c2cc(N3CCOCC3)nc(C)n2)CC1 | 0.38 | 1.62
O=C(O)CSc1nc2ccccc2nc1N1CCCCC1 | 0.35 | -1.12
CCC(=O)c1ccc(OC)cc1OC | / | -1.13
COc1ccc(NC2=CC(=O)CC(C)(C)C2)cc1 | 1.58 | -2.08
CC1CCCN(CCCNC(=O)Nc2cn(C)c(=O)c3ccccc23)C1 (stereo not drawn) | -0.62 | /
COc1ccccc1N1C(=O)N(c2ccccc2Cl)C2CS(=O)(=O)CC21 (stereo not drawn) | -0.4 | -2.91

mol | TAR Tat displ | CDC25B-CDK2 inh
c1cncc(-c2noc(C3CCCCC3)n2)c1 | 0.92 | -1.34
Cc1cc(C)cc(C(=O)Nc2c(C)nc3ccccn3c2=O)c1 | 1.08 | /
Cn1c(C(=O)N2CCN(C3CCCCC3)CC2)cc2c(=O)[nH]c3ccccc3c21 | 0.47 | 2.65
CCc1c(C)nc(-n2nc(C)cc2C)nc1Nc1ccccc1 | 2.34 | -2.76
O=C(NCCN1CCOCC1)C1CCN(c2ccc(F)cc2)C1=O (stereo not drawn) | 1.5 | /
Cc1ccccc1CN[C@H]1CS(=O)(=O)C[C@@H]1S(=O)(=O)c1ccc(F)cc1 | -1.49 | 0.14
CC1CCN(c2oc(-c3ccc(F)cc3)nc2S(=O)(=O)c2ccccc2)CC1 | 2.02 | -0.72
NS(=O)(=O)c1ccc(CCNc2ncnc3nc[nH]c23)cc1 | 0.42 | -2.22
O=C(O)CC(NC(=O)c1ccco1)c1ccc(F)cc1 (stereo not drawn) | / | -0.26
CCCOC(=O)Nc1sc2c(c1C(=O)OCC)CCC2 | 0.09 | -0.41

mol | TAR Tat displ | CDC25B-CDK2 inh
COc1ccc(C2CC(=O)C3=C(C2)NC(C)=C(C(=O)OC(C)C)C3c2ccccc2C)cc1OC (stereo not drawn) | 1.07 | -2.04
Cn1ncc2c(NCc3ccccc3Cl)nc(NC3CCCC3)nc21 | 1.08 | /
COc1ccc(C(=O)Nc2cnc3oc(-c4ccc(C(C)C)cc4)nn3c2=O)cc1OC | 1.78 | /
COC(=O)c1c(-n2cccc2)sc(C)c1C | 0.12 | -1.52
CC(C)Sc1ncc(Cl)c(C(=O)Nc2sc3c(c2C(N)=O)CCCC3)n1 | -5.47 | -0.23
CCOC(=O)N1CCN(S(=O)(=O)N2CCCC(C(=O)NC(C)C)C2)CC1 (stereo not drawn) | 2.28 | /
CN(Cc1cnn(-c2ccccc2)c1)S(=O)(=O)c1ccc2c(c1)NC(=O)CCS2 | 0.88 | /
Cc1nnc2n1NC(c1ccc(Cl)cc1)C(C(=O)Nc1ccc(Br)cc1)S2 (stereo not drawn) | -1.14 | -1.47
O=c1n(Cc2ccc(F)cc2)nc2n1-c1cc(Cl)ccc1OC2 | -0.84 | -0.61
Clc1ccc(CSc2ncnc3nc[nH]c23)cc1 | 1.21 | -1.17

mol | TAR Tat displ | CDC25B-CDK2 inh
O=C(Nc1cc(F)ccc1F)C1CCCN(S(=O)(=O)N2CCOCC2)C1 (stereo not drawn) | 3.53 | /
Cc1ccc(OC(=O)CCc2c(C)nc3ncnn3c2C)cc1 | 0.24 | -0.14
O=C(CCC(=O)N1Cc2ccccc2Oc2ncccc21)NCCCN1CCOCC1 | 1.17 | /
O=C(Cn1c(=O)sc2ccccc21)Nc1sc2c(c1C(=O)O)CCCC2 | 0.81 | -0.55
Cc1ccc(C)c(Cn2c(C)nc3ccccc32)c1 | -0.4 | -0.41
Cc1cc(C)n(-c2nc3ccccc3nc2N2CCN(S(=O)(=O)c3ccc(F)cc3)CC2)n1 | 0.11 | -0.88
Cn1cc(-c2cc3n(n2)CCC(=O)N3CCCC(=O)NC2CC2)c2ccccc21 | 1.61 | /
COc1ccc(Nc2nc3ccccc3c3nnc(C)n23)c(OC)c1 | 0.8 | /
Cc1cccc(Oc2nc(C)nc3c2oc2ccccc23)c1 | -0.38 | /
NC(=O)c1nnc2ccc(Cl)cc2c1N | / | -1.67

SMILES	TAR Tat displ	CDC25B-CDK2 inh
N#Cc1c(F)cccc1NCCc1ccccn1	/	-0.07
O=C1c2c(O)cc(O)cc2O[C@H](c2ccc(O)c(O)c2)[C@@H]1O	11.2	/
O=S(=O)(NC(c1nnc(-c2ccccc2)o1)c1ccccc1Cl)c1cccs1 (stereo not drawn)	-1.28	/
COC(=O)CSc1nnc(-c2ccccc2)o1	-0.25	-1.87
Cc1cc(-c2cccs2)c2c(n1)sc1c(O)cc(=O)[nH]c12	-0.52	-1.24
Cc1cc(C(F)(F)F)nc2c(Br)c(C(C)(C)C)nn12	/	-1.41
Cn1c(=O)c2c(-c3cccc(Br)c3)n(-c3ccccn3)cc2n(C)c1=O	1.72	-0.53
CCCCN(C)C(=O)c1cn(C2CCCC2)c(=O)c2c1c1ccccc1n2C	/	-1.45
COc1ccc(-n2c(SCC(N)=O)nnc2-c2c[nH]c3ccccc23)cc1	/	0.45
CCOC(=O)Cc1csc(COc2ccc(C3SCCS3)cc2)n1	/	-2.41

SMILES	TAR Tat displ	CDC25B-CDK2 inh
Cn1cnc(=N)c2[nH]cnc21	1.79	/
CC1CCC(NS(=O)(=O)c2ccc3c(c2)OCC(C(=O)N2CCCCC2)O3)CC1 (stereo not drawn)	0.5	/
Cc1cc2nc(-c3ccc(NC(=O)c4ccc([N+](=O)[O-])o4)cc3)oc2cc1C	0.24	-0.71
CCOC(=O)c1sc(SC)c(S(C)(=O)=O)c1N	-1.41	-2.14
CC(C)(C)c1nnc(NC(=O)C(=O)c2c[nH]c3ccccc23)s1	3.48	-1.19
COc1cc(OC)c(C(=O)CCCN2CCCC2)c(OC)c1	1.6	/
COc1cccc(Nc2c(O)c(=O)c2=O)c1	-0.8	/
Cc1ccc2c(c1)cc1c(=O)n(CC(=O)N3CCCC3)nc(C)n12	0.3	-2.07
O=[N+]([O-])c1ccc(-n2ccc3ccccc32)cc1	/	0.01
COc1ccc(C2=NN(C(C)=O)C(c3cc(Cl)c(OC(C)=O)c(OC)c3)O2)cc1 (stereo not drawn)	2.15	/

SMILES	TAR Tat displ	CDC25B-CDK2 inh
CCSCCOC(=O)C1=C(C)NC2=C(C(=O)CC(c3cccs3)C2)C1c1ccc(F)cc1 (stereo not drawn)	0.71	-0.54
COc1ccc(Cn2c(SCc3cccc(F)c3)nc3cccnc32)cc1	-1.36	/
Cc1ccc(-c2cc3ccccn3c2)c(C)c1	2.17	-1.71
COc1ccc2c(c1)CC(NC(=O)NCCN1CCN(C)CC1)CO2 (stereo not drawn)	1.31	/
Cn1ncc2c(N3CCN(Cc4ccc5c(c4)OCO5)CC3)ncnc21	1.56	/
O=c1cc(CSc2ccccc2)[nH]c2ccccc12	-0.28	/
Cc1ccc(C(=O)c2cn(Cc3cccc(F)c3)c3cc4c(cc3c2=O)OCCO4)cc1	-0.91	0.59
CC1=C(C(=O)N2CCN(C)CC2)C2(CCN(S(=O)(=O)c3cccs3)CC2)OC1=O	0.01	/
Cc1cc(NC(=O)CCCC(=O)O)no1	1.23	-1.32
CN(C)c1ccc(-n2cc3c(c2-c2ccc(Cl)cc2)c(=O)n(C)c(=O)n3C)cc1	-1.62	-3.16

SMILES	TAR Tat displ	CDC25B-CDK2 inh
CC(=O)Nc1cc(=O)oc2ccc(NC(=O)c3ccc(F)cc3)cc12	/	-1.65
Cc1cccn2cc(CNC(=O)c3ccco3)nc12	/	-0.63
CN1C(C(=O)N2CCc3ccccc3C2)=CC(c2ccc(F)cc2)=NS1(=O)=O	1.47	-2
Cc1nc(-c2csc(S(=O)(=O)N3CC=C(c4ccccc4)CC3)c2)no1	-1.29	/
COC(=O)c1sccc1NC(=O)c1cccs1	/	6.69*
CCOC(=O)C1=C(C)NC2=C(C(=O)C(C(=O)OCC)C(c3ccc(OC)cc3)C2)C1c1ccsc1 (stereo not drawn)	1.75	-1.36
CSCCC(NS(=O)(=O)c1ccc2c(c1)oc(=O)n2C)C(=O)NC1CCCCC1 (stereo not drawn)	1.9	-0.09
CN(C)CCN(Cc1ccccc1)C(=O)C(C(=O)c1ccccc1)n1ccccc1=O (stereo not drawn)	-1.48	-1.78
c1nc(NCc2ccc3c(c2)OCO3)c2c3c(sc2n1)CCCC3	0.94	-1.59
CC(C)(C)S(=O)(=O)/C(C#N)=C/N1CCN(C(c2ccccc2)c2ccccc2)CC1	/	-1.05

SMILES	TAR Tat displ	CDC25B-CDK2 inh
CC1(C)S[C@@H]2[C@H](NC(=O)COc3ccccc3)C(=O)N2[C@H]1C(=O)O	1.87	/
COc1ccc(C2c3c(-c4c(C)cc(C)cc4O)n[nH]c3C(=O)N2CCO)cc1 (stereo not drawn)	2.96	-1.61
Cc1cc(F)ccc1NC(=O)c1cnc2sc3c(n2c1=O)CCCC3	0.27	/
Oc1c(C(Nc2ccccc2)c2ccccn2)ccc2cccnc12 (stereo not drawn)	/	-0.08
Cc1ncc(-c2ccc(S(=O)(=O)NC3CCCc4ccccc43)cc2)o1 (stereo not drawn)	2	/

# Compounds listed so far containing a furan ring, fused or not (eight):
SMILES	TAR Tat displ	CDC25B-CDK2 inh
CCC1Sc2ccc(S(=O)(=O)CCC(=O)NCc3ccc(C)o3)cc2NC1=O (stereo not drawn)	0.48	/
Cc1ccc(C(C)C)c(OC(C)C(=O)N(Cc2ccc(C)o2)C2CCS(=O)(=O)C2)c1 (stereo not drawn)	0.93	0.79
CCOC(=O)CSc1nc2c(sc(=S)n2CCc2ccccc2)c(=O)n1Cc1ccco1	2.29	/
Cc1oc2ncnc(N3CCOCC3)c2c1C(=O)N1CCN(c2ccc(Cl)cc2)CC1	1.29	/
O=C(O)CC(NC(=O)c1ccco1)c1ccc(F)cc1 (stereo not drawn)	/	-0.26
Cc1cccc(Oc2nc(C)nc3c2oc2ccccc23)c1	-0.38	/
Cc1cc2nc(-c3ccc(NC(=O)c4ccc([N+](=O)[O-])o4)cc3)oc2cc1C	0.24	-0.71
Cc1cccn2cc(CNC(=O)c3ccco3)nc12	/	-0.63

# Screens as filed in PubChem.
